Compound activity: PubChem BioAssay, The Scripps Research Institute Molecular Screening Center
OX1R antag: human HCRTR1 antagonism; O43613; CHO/OX1R cells, Fluo-8 calcium fluorescence, orexin A; inhibition, % at 5 µM; 330,000 compounds, 0.43% hits; AID 434989;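 active = inhibition above its plate's threshold, mean inhibition of all tested compounds on the plate plus 3 SD, cut at about 37% in these data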;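 also: 0% = orexin A challenge wells and 100% = SB-334867-A antagonist wells; not every result past the cut was called active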
Target sequence (O43613 whole entry, looked up): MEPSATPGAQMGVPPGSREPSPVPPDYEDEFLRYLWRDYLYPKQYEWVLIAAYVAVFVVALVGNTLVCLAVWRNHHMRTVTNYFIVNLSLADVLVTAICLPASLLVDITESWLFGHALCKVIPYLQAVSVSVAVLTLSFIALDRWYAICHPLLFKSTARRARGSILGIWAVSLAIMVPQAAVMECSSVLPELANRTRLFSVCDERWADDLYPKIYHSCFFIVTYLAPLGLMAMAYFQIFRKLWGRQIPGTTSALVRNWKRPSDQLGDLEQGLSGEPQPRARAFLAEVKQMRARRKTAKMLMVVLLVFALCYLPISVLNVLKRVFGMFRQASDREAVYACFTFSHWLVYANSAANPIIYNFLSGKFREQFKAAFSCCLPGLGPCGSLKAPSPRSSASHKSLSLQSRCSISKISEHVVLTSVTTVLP
* = called active by the depositor.

entry	mol	OX1R antag
1	Cc1cc(NC(=S)N(Cc2ccc(Cl)cc2)Cc2ccc(C(=O)O)cc2)ccc1Cl	2
2	CCCS(=O)(=O)c1nc(S(=O)(=O)c2ccc(C)cc2)c(N2CCCC(C)C2)s1 (configuration not stated)	-7
3	Cc1ccc2oc(C(=O)N(Cc3ccc(N(C)C)cc3)C3CCS(=O)(=O)C3)c(C)c2c1 (configuration not stated)	-29
4	COC(=O)c1sccc1NC(=O)C1CC2CCC1C2 (configuration not stated)	-21
5	CCCCC(O)(CCN1CCOCC1)c1ccc(Cl)cc1 (configuration not stated)	-12
6	OCCNc1nc(-c2ccccc2)c2ccccc2n1	-9
7	COc1cc(CNC2CCCCCCC2)c(Br)cc1OCCO	-18
8	CCCCN1C=CC(=C2C(=O)c3ccccc3C2=O)C=C1	-17
9	Cc1ccc(NC(=O)COC(=O)COc2ccc(Cl)cc2C)c([N+](=O)[O-])c1	-11
10	Cn1c(COc2ccc3ccccc3c2)nnc1SCC(=O)O	-18
11	COc1ccc(CNC(=O)CS(=O)(=O)Cc2nc(-c3cccc(OC)c3)oc2C)cc1	-29
12	Cn1cccc1Cc1nnc(SCC(=O)NCCc2ccccc2)n1-c1ccc(F)cc1	-20
13	CC/C(=N\NS(=O)(=O)c1ccc(C)cc1)c1ccco1	-17
14	O=C(CN1CCN(c2ccccn2)CC1)Nc1ccc(Oc2ccccc2)cc1	-25
15	COc1cc(OC)c(C2C(C(=O)Nc3ccccc3)=C(C)Nc3ncnn32)cc1OC (configuration not stated)	5
16	Cc1ccc(S(=O)(=O)N2CCCCC2)cc1C(=O)Nc1ccc(N2CCOCC2)cc1	-15
17	COc1ccccc1/C=C/CN1CCN(Cc2ccc(C)o2)C(CCO)C1 (configuration not stated)	-12
18	NC(=O)c1c(NC(=O)CSc2nc3c(c(C(F)(F)F)n2)CCc2ccccc2-3)sc2c1CCCC2	-8
19	COc1ccc(C2C(C(=O)Nc3ccccn3)=C(C)Nc3ncnn32)c(OC)c1 (configuration not stated)	-12
20	CCCCCCC(=O)Nc1cc2c(C)cc(=O)oc2cc1C	-41
21	COc1ccc(C2=NOC(C(=O)N3CCN(C(=O)c4ccco4)CC3)C2)cc1OC (configuration not stated)	-15
22	O=C(Oc1ccc2c(=O)c(Oc3ccc4ccccc4c3)coc2c1)c1cncc(Br)c1	-31
23	Cc1cc(C)c(S(=O)(=O)N2CCCc3ccccc32)c(C)c1	-9
24	COc1ccc(-c2[nH]nc(-c3ccccc3)c2-c2nc3ccccc3[nH]2)cc1	-17
25	O=S(=O)(/N=C/N1CCOCC1)c1ccc(Cl)cc1	-10
26	Cc1ccc(S(=O)(=O)N2CCN(c3ncccn3)CC2)c(C)c1	-18
27	COc1ccccc1N(CC(O)CN1CCOCC1)S(=O)(=O)c1ccccc1 (configuration not stated)	-17
28	COc1ccc(S(=O)(=O)N2CCC3(CC2)OCCN3S(=O)(=O)c2cccs2)cc1OC	-12
29	CC1CN(S(=O)(=O)c2ccccc2)CN1C(=O)N1CCOCC1 (configuration not stated)	-17
30	CCOc1ccc(NC(=O)CN(C)C(=O)c2ccc(N3CCCC3)c([N+](=O)[O-])c2)cc1OCC	-4
31	NC(=O)CSC1=N/C(=C\c2ccco2)C(=O)N1c1ccc(OC(F)F)cc1	-20
32	COc1cc2c(cc1OC)C(c1cccs1)NCC2 (configuration not stated)	-21
33	NC(=O)CN1CCN(c2ccccc2F)CC1	-6
34	Cc1ccc([N+](=O)[O-])cc1-c1ccc(/C=N/NC(=O)c2cc3c(ccc4ccccc43)o2)o1	-17
35	CS(=O)(=O)c1ccc(Cl)c(NC(=O)CCl)c1	-2
36	COc1ccc(C(=O)NC(C)c2nnc(SCC(=O)Nc3nc4ccccc4s3)n2C)cc1 (configuration not stated)	-20
37	COc1ccccc1CNC(=O)C12CC3CC(CC(C3)C1)C2	-25
38	CCOc1ccc(C(=O)c2cc([N+](=O)[O-])ccc2N2CCOCC2)cc1	-14
39	CN(C)S(=O)(=O)c1ccc(C(=O)NCc2nnc(SCC(=O)c3ccccc3)o2)cc1	-19
40	COc1ccc(NC(=O)C2CCCCN2N)cc1OCC(C)C (configuration not stated)	-34
41	COc1ccc(OC)c(NC(=O)CSc2nnc3ccc(-c4ccncc4)nn23)c1	-24
42	O=C(Cn1cc([N+](=O)[O-])cn1)Nc1cccnc1	-7
43	COC(=O)c1cc(OC)c(OC)cc1N1C(=O)CCCC1=O	-9
44	O=C(OCC(O)CO)c1ccccc1Nc1ccnc2cc(Cl)ccc12 (configuration not stated)	-11
45	O=C(CSc1nnc(-c2cccc(S(=O)(=O)N3CCCC3)c2)n1-c1ccccc1)Nc1cccc(C(=O)O)c1	-11
46	CCC1=NC(c2ccc(OC)cc2OC)N(O)C1(C)C (configuration not stated)	-8
47	COc1cccc(N(CC(=O)Nc2cccc(N(C)S(C)(=O)=O)c2)S(C)(=O)=O)c1	-4
48	O=C(Nc1ccn(Cc2c(F)c(F)cc(F)c2F)n1)c1cccc(Cn2cc([N+](=O)[O-])cn2)c1	-10
49	CCN(CC)C(=O)Cn1cc(SCC(=O)NC)c2ccccc21	-18
50	CC(C)[C@H](NC(=O)c1ccccc1)C(=O)OCC(=O)c1ccccc1F	-12
51	CC1Cc2ccccc2N1C(=O)C1CCCN(S(=O)(=O)c2cccc3nsnc23)C1 (configuration not stated)	-7
52	CCCC(=O)N(c1ccccc1)C1C=CS(=O)(=O)C1 (configuration not stated)	-6
53	Cc1ccnc(NC(=O)CC(NC(=O)c2ccccc2Cl)c2ccccc2)c1 (configuration not stated)	-20
54	CC(C)c1ccccc1NC(=O)c1cccc(NC(=O)c2ccccc2)c1	-24
55	Cc1cc2nccc(-c3ccc(F)cc3)n2n1	-12
56	Cc1nc(=O)c(-c2ccccc2)c(C)n1-c1ccc(O)c(C(=O)O)c1	-9
57	CN(C)S(=O)(=O)c1ccc(S(=O)(=O)N(CC(=O)Nc2ccccc2)CC2CCCO2)cc1 (configuration not stated)	-45
58	CC(C)C(=O)OCC(=O)Nc1ccc(N=Nc2ccccc2)cc1	-1
59	COc1ccc(OC)c(NC(=O)c2ccc3c(c2)C(=O)N(CC2CCCO2)C3=O)c1 (configuration not stated)	-18
60	Cc1ccc(-n2c(C)cc(C3N=C(N)Nc4nc5ccccc5n43)c2C)c(C)c1 (configuration not stated)	-32

By substructure: the entries above with bromine.
entry	mol	OX1R antag
7	COc1cc(CNC2CCCCCCC2)c(Br)cc1OCCO	-18
22	O=C(Oc1ccc2c(=O)c(Oc3ccc4ccccc4c3)coc2c1)c1cncc(Br)c1	-31

The main list resumes with the three entries that preceded the break.
entry	mol	OX1R antag
58	CC(C)C(=O)OCC(=O)Nc1ccc(N=Nc2ccccc2)cc1	-1
59	COc1ccc(OC)c(NC(=O)c2ccc3c(c2)C(=O)N(CC2CCCO2)C3=O)c1 (configuration not stated)	-18
60	Cc1ccc(-n2c(C)cc(C3N=C(N)Nc4nc5ccccc5n43)c2C)c(C)c1 (configuration not stated)	-32
61	COc1ccc(S(=O)(=O)NNC(N)=S)cc1	-14
62	Cc1ccc(OCC(=O)Nc2ccc3c(c2)nc(CCN2CCN(C)CC2)n3C)cc1	2
63	CN1OC2C(=O)N(c3ccccc3)C(=O)C2C1c1ccc(F)cc1 (configuration not stated)	-15
64	COc1ccc(/C(C)=N/Nc2cccc(C(=O)O)c2)cc1OC	-3
65	C=CCn1c(SCC(=O)c2ccc(Cl)s2)nc2ccccc2c1=O	-25
66	COC(=O)Nc1nnc(/C=C/c2ccccc2)s1	-18
67	CCCCNC(=S)N(CCCN(C)C)Cc1cc2cc3c(cc2[nH]c1=O)OCO3	-18
68	COc1ccc(CNC(=O)CSc2nnc3c(n2)[nH]c2ccc(OC)cc23)cc1	-31
69	CC(=O)/C(=C/N(C)C)C(=O)Nc1ccc(Cl)cc1Cl	-20
70	O=C(CCCCn1c(=O)[nH]c2ccsc2c1=O)NCc1ccc2c(c1)OCO2	-27
71	CC1(C)CN=C(N(C(=O)Nc2ccccc2)c2ccccc2F)S1	-15
72	COc1ccc(C(=O)NC2CCCc3c2cnn3-c2cc(F)cc(F)c2)c(OC)n1 (configuration not stated)	-4
73	Cc1cc(C)c(NC(=O)C2CCCN(S(=O)(=O)c3c(C)noc3/C=C/N(C)C)C2)c(C)c1 (configuration not stated)	-24
74	O=C(NCc1ccc2[nH]c3c(c2c1)CCCC3)c1ccc(S(=O)(=O)N2CCCCC2)cc1	-29
75	Cc1ccc(N2CCN(S(=O)(=O)c3nnc(NC(=O)c4ccco4)s3)CC2)cc1	5
76	CCC(=O)N1CCc2cc(S(=O)(=O)NCCC(=O)NCc3ccccc3Cl)ccc21	-23
77	COc1ccc(/C=C/C(=O)OCC(=O)NCc2ccco2)c(OC)c1	-2
78	O=C(O)c1cccnc1NC1CCCC1	3
79	CCCCN(c1ccccc1)S(=O)(=O)N(C)C	-26
80	Cc1nn2c(=O)cc(CSc3ccccc3NC(=O)c3ccccc3)nc2s1	-8
81	CCCNC(=S)NC1CC2CCCC(C1)N2CC(C)C (configuration not stated)	1
82	Cn1c(=O)n(CC(=O)OCc2ccccc2)c(=O)c2c1nc1n2CCCN1C1CCCCC1	-16
83	CCc1cccc2c(C(=S)N3CCCC3)c[nH]c12	-7
84	CCN(C(=O)Cc1ccc(Br)cc1)C1CCCCC1	-28
85	CC(=O)Nc1cccc(-c2csc(N)n2)c1	-134
86	CC1(c2nnc(-c3ccc(F)cc3)o2)CC(c2ccc(Cl)cc2)=NO1 (configuration not stated)	-19
87	COc1cccc(-c2onc3ccc(C4(C)OCCO4)cc23)c1	-13
88	COc1ccc(C(=O)/C=C/Nc2c(C)n(C)n(-c3ccccc3)c2=O)cc1OC	-21
89	CC1CCCN(C(=O)c2ccc3c(=O)n(Cc4ccc5c(c4)OCO5)c(=S)[nH]c3c2)C1 (configuration not stated)	-26
90	COc1cc2nc(N(CCN(C)C)C(=O)c3ccc4ccccc4c3)sc2cc1OC	-19
91	O=C(CSc1nnc(-c2cnccn2)n1Cc1ccco1)c1ccc(Cl)cc1	-8
92	N#Cc1cccc(NC(=O)CSc2sc3c(O)cc(=O)[nH]c3c2C#N)c1	-1
93	O=C1CSC(c2ccncc2)N1Cc1ccc(F)cc1 (configuration not stated)	-1
94	Cc1cccc(-n2ccnc2SCC(=O)Nc2nccs2)c1	-24
95	COc1nc(-c2cnccn2)sc1C	-9
96	Cc1ccc(-n2c(CNc3cccc(Cl)c3)n[nH]c2=S)cc1	-10
97	O=C(NCc1ccc2c(c1)OCO2)c1sccc1Br	-21
98	COc1ccccc1NS(=O)(=O)c1ccc2oc(SC3CCOC3=O)nc2c1 (configuration not stated)	-13
99	CN(C)/C=N/c1nccc(-c2cccs2)n1	-2
100	CCOC(=O)/C=C1\SCC(=O)N1CC(=O)NC(C)c1ccccc1 (configuration not stated)	-13
101	CCNC(=O)c1c(O)c2cccc3c2n(c1=O)CC3	-15
102	COC(=O)/C(C#N)=C/c1c(N2CCN(c3ccccc3)CC2)nc2ccccn2c1=O	-30
103	O=C(Cn1cc(C(=O)c2ccco2)c2ccccc21)NC1CCCC1	-29
104	C#CCOc1nc(C)cc(C)c1S(=O)(=O)c1ccccc1C	-15
105	COc1ccc(C(C)=O)cc1COC(=O)c1ccc2c(c1)OCO2	-15
106	CC(=O)c1ccc(NC(=O)c2ccc(NC(=O)c3ccco3)cc2)cc1	1
107	Cc1cccc(NC(=O)CSc2nc3ccccc3c(=O)n2C)c1	-2
108	Cc1ccc(S(=O)(=O)N2CCCC2)cc1C(=O)N1CCC(C)CC1	-13
109	O=Cc1nc(-c2ccc(Cl)cc2)n2ccccc12	-4
110	Cc1ccsc1/C=N/Nc1ncnc2nc[nH]c12	0
111	COc1cc(NC(=O)C2=C(N3CCOCC3)/C(=C\c3ccc(N(C)C)cc3)CCC2)cc(OC)c1OC	-13
112	O=C(NCc1ccncc1)c1ccc(Cl)c(S(=O)(=O)N2CCCCC2)c1	-25
113	CCCOc1ccc(/C=N/NC(=O)CN2CCCCC2)cc1OCC	-34
114	COc1ccc(S(=O)(=O)NCc2csc(C)n2)cc1OC	-12
115	Cn1nc(C(F)(F)F)c(/C=N/OC(=O)c2ccccc2)c1SCc1ccc(Cl)cc1	-23
116	O=C(Nc1ccncc1)c1ccc2c(c1)OCCO2	-18
117	CC(=O)c1cc(CN2CCC(n3nccc3NC(=O)c3ccccc3Cl)CC2)cs1	-14
118	Cc1coc2c(C)c3oc(=O)cc(-c4ccccc4)c3cc12	-26
119	COc1ccc(S(=O)(=O)N(CC(=O)Nc2cc(C)on2)Cc2ccccc2)cc1	-26
120	Cc1ccc(Nc2nc(N)nc(CN3CCN(Cc4ccccc4)CC3)n2)cc1Cl	-30

Later entries.
entry	mol	OX1R antag
121	O=c1[nH]c(-c2ccc(Cl)cc2)cs1	-16
122	O=C(NC(C1CC1)C1CC1)C1CCC(=O)N(CCCN2CCCC2=O)C1 (configuration not stated)	-8
123	CCc1ccc(NC(=O)C2CCN(C(=O)[C@@H]3Cc4ccccc4CN3)CC2)cc1	-17
124	N#CCCCn1c(=O)oc2ccccc21	1
125	COc1ccc(-n2cnnc2SCC(=O)Nc2nc(C)c(Cl)cc2Cl)cc1	-16
126	CC(NC(=O)c1ccco1)c1nc(-c2ccccc2Cl)no1 (configuration not stated)	4
127	O=C(Cn1ccc([N+](=O)[O-])n1)N1CCCCCC1	-5
128	CSCCC(NC(=O)c1ccccc1Cl)C(=O)NC1CCN(Cc2ccccc2)CC1 (configuration not stated)	-16
129	CC(=O)N1CCN(c2ccc(NC(=O)c3ccc(OCc4ccccc4)cc3)cc2)CC1	-19
130	CCCCP(=O)(CCCC)c1ccccc1C(=O)O	-8

Compounds shown so far that contain a cyano group, in the order listed:
entry	mol	OX1R antag
92	N#Cc1cccc(NC(=O)CSc2sc3c(O)cc(=O)[nH]c3c2C#N)c1	-1
102	COC(=O)/C(C#N)=C/c1c(N2CCN(c3ccccc3)CC2)nc2ccccn2c1=O	-30
124	N#CCCCn1c(=O)oc2ccccc21	1

A portion of the library, and most or all hits are left out here.
